GIRK2 activ: activators of human GIRK2 potassium channels; hit rate 0.05% among 63,000; AID 1259325, 2017; calls only for hits at 25 µM; HEK293-GIRK2 thallium flux, Thallos fluorescence; G protein-activated inward rectifier potassium channel 2 (Homo sapiens), P48051;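 active = among the strongest 0.2% of first-round signals and kept after retests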;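 note: first round at about 10 µM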
Target sequence (P48051 whole entry, looked up): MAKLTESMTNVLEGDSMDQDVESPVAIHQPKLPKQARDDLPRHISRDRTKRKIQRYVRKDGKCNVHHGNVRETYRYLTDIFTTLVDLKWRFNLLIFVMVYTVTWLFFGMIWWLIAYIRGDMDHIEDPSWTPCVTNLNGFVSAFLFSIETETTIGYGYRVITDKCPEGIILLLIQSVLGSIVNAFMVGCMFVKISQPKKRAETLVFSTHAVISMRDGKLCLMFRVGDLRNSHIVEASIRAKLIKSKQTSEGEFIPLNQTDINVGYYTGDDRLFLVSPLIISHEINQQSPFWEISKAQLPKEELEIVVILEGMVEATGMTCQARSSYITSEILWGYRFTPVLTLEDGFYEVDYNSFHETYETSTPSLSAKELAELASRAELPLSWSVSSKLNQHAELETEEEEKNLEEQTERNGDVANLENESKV
Calls only; i = inactive. Some of the compounds tested; count on the stated rates, not on these rows.

GIRK2 activ	SMILES
i	O=S1(=O)c2ccccc2C(c2ccccc2)=NN1Cc1cccc(Br)c1
i	COc1ccc(C(O)=C2C(=O)C(=O)N(c3cc(C)on3)C2c2cccc([N+](=O)[O-])c2)cc1 (centres undefined)
i	O=C(NCCNc1cc(-n2cccc2)ncn1)Nc1ccccc1
i	C=CCn1c(=O)c2c(nc3n2CC(C)CN3c2cc(OC)ccc2OC)n(C)c1=O (centres undefined)
i	CCOC(=O)c1cnn2ccc(NS(=O)(=O)c3ccc(F)c(Cl)c3)cc12
i	Cn1cccc1CN(Cc1cccs1)C(=O)c1cccc(Cl)c1
i	COc1cc(NC(=O)Nc2nc(-c3nc4ccccc4s3)cs2)cc(OC)c1OC
i	Cc1nnc(NC(=O)CSc2nc(=O)n(CCO)c3c2CCC3)s1
i	COC(=O)COc1ccc(N2CCn3c2nc2c3c(=O)n(C)c(=O)n2C)cc1
i	Cn1c2ccccc2c(=O)c2c(=O)n(C3CCCCC3)c(-c3cccs3)nc21

5 entries from above, set out differently:
| molecule | GIRK2 activ |
| --- | --- |
| O=S1(=O)c2ccccc2C(c2ccccc2)=NN1Cc1cccc(Br)c1 | i |
| COc1ccc(C(O)=C2C(=O)C(=O)N(c3cc(C)on3)C2c2cccc([N+](=O)[O-])c2)cc1 (centres undefined) | i |
| O=C(NCCNc1cc(-n2cccc2)ncn1)Nc1ccccc1 | i |
| C=CCn1c(=O)c2c(nc3n2CC(C)CN3c2cc(OC)ccc2OC)n(C)c1=O (centres undefined) | i |
| CCOC(=O)c1cnn2ccc(NS(=O)(=O)c3ccc(F)c(Cl)c3)cc12 | i |

The list goes on.
GIRK2 activ	SMILES
i	CCOC(=O)CC(=O)CSC1=C(C#N)C(c2ccccc2F)C(C(=O)OCC)C(=O)N1 (centres undefined)
i	COc1ccc(-c2c(C)c3ccc(OCCN4CCC(C(N)=O)CC4)cc3oc2=O)cc1OC
i	O=C(NCCCCN1CCCC1)c1nc2ccccc2s1
i	Cc1cc2ncn(CC3CCN(CC(=O)Nc4ccc5c(c4)OCO5)CC3)c2cc1C
i	COc1ccc(N2N=NC3C(=O)N(c4ccc(C)c(Cl)c4)C(=O)C32)cc1OC (centres undefined)
i	CN(CCO)CC1COCCN1C(=O)c1cc2ccccc2o1 (centres undefined)
i	O=C(Cn1nnn(-c2ccc(NS(=O)(=O)/C=C/c3ccccc3)cc2)c1=O)NC1CC1
i	Cc1ccc(COc2ccccc2-n2c(C)cn3c4c(=O)n(C)c(=O)n(C)c4nc23)cc1
i	C[C@@H]1O[C@@H](O[C@H]2[C@H](OC(=O)[C@]34CCC(C)(C)C[C@H]3C3=CCC5[C@@]6(C)C[C@H](O)[C@H](O[C@@H]7O[C@H](C(=O)O)[C@@H](O)[C@H](O)[C@H]7O)[C@](C)(C(=O)O)C6CC[C@@]5(C)[C@]3(C)CC4)OC[C@H](O)[C@@H]2O)[C@H](O)[C@H](O)[C@H]1O[C@@H]1OC[C@@H](O)[C@H](O)[C@H]1O (some centres undefined)
i	O=C(Cn1cccn1)N1CCN(c2cccc(Cl)c2Cl)CC1

The results go on.
GIRK2 activ	SMILES
i	C[C@@H]1O[C@@H](OC[C@H]2O[C@@H](OCCc3ccc(O)c(O)c3)[C@H](O)[C@@H](O[C@@H]3O[C@@H](C)[C@H](O)[C@@H](O)[C@H]3O)[C@@H]2OC(=O)/C=C/c2ccc(O)c(O)c2)[C@H](O)[C@H](O)[C@H]1O
i	COc1ccccc1N1CCN(c2nccnc2SCC(=O)Nc2ccc(C#N)cc2)CC1
i	N#CCSc1ncc(-c2cccc([N+](=O)[O-])c2)n1-c1cccc(C(F)(F)F)c1
i	Cc1nc(-n2nc(-c3cccs3)cc2NC(=O)COc2ccc(Cl)cc2Cl)[nH]c(=O)c1C
i	COc1ccccc1-c1nc(CSc2nc(-c3ccccc3)cc(=O)[nH]2)c(C)o1
i	COc1ccc(CCn2c3c(c(=S)[nH]c2=O)CCC3)cc1
i	CCSc1ccc(CC(=O)N(Cc2ccncc2)c2nc3c(OC)cccc3s2)cc1
i	COc1cc2oc(C)c(C)c2cc1/C(C)=C/C(=O)NC1=NCCS1
i	COc1ccc(S(=O)(=O)NCC2(c3ccccc3)CCOCC2)cc1OC
i	COC(=O)c1ccc(CN2CCC(c3nnc(C(C)C)o3)CC2)o1

(cont.)
GIRK2 activ	SMILES
i	COc1cccc2cc(C(=O)Nc3ccncc3)oc12
i	O=C(/C=C/c1ccccc1Cl)Nc1ccc2c(c1)CN(C(=O)c1ccco1)CC2
i	O=C(NCCOc1ccccc1)NCCC(O)c1ccoc1 (centres undefined)
i	Cc1cc(C)c2sc(NC(=O)c3ccc(S(=O)(=O)N4CCCC4)cc3)nc2n1
i	CC1CCN(C(=O)CSc2ncccc2-c2nc3ccccc3[nH]2)CC1
i	Cn1cnnc1SCCNC(=O)C1(c2ccccc2)CCOCC1
i	O=C(Nc1ccc2c(c1)OCO2)N1CCC(c2nnc(C(F)(F)F)o2)CC1
i	O=C(Nc1cccc2cccnc12)C1CCN(c2ccc(-n3cccn3)nn2)CC1
i	CCCCc1ccc(-n2c(C)cn3c4c(=O)n(CC(N)=O)c(=O)n(C)c4nc23)cc1
i	O=C(c1cnc2ccccc2n1)N1CCN(CCn2cccn2)CC1

Continued:
GIRK2 activ	SMILES
i	O=C(c1cccc(Cl)c1)N1CCN(CCn2ccnc2)CC1
i	Cn1c(N2CCN(CCO)CC2)nc2c1c(=O)n(Cc1ccccc1)c(=O)n2C
i	N#Cc1cccc(NC(=O)CSC2=NNC3C4CC(c5ccccc5)NN4C=CN23)c1 (centres undefined)
i	CCOc1cc(C(=O)NCCCn2ccnc2-c2ccccc2)cc(OCC)c1OCC
i	Cc1cc(C(=O)N2CC(c3nc(-c4ccccn4)no3)C2)no1
i	CCOc1ccccc1-c1nc(CN(c2ccccc2OC)S(=O)(=O)c2ccccc2C)c(C)o1
i	Cc1cc(C(=O)Nc2ccc(-n3nnc(C(N)=O)n3)cc2)c(C)o1
i	CC(C)c1ccc(CNC(=O)CCc2nnc3c(N4CCCCC4)nc4ccccc4n23)cc1
i	Cc1cccc2sc(OC3CN(C(=O)c4ccc(S(=O)(=O)C(C)C)cc4)C3)nc12
i	CC(C)C(=O)Nc1nc(-c2ccc3c(c2)CCCC3)cs1

Further structures follow.
GIRK2 activ	SMILES
i	O=C(NCc1cccnc1)c1ccc2nsnc2c1
i	CCCCNC(=O)C(=O)Nc1cccc(N2CCCC2=O)c1
i	O=C(Nc1nnc(-c2ccc(Cl)s2)o1)c1ccccc1
i	CC(C)(C)C(=O)NCCc1ccoc1
i	O=C(CSC1CCCC1)N1CCCSCC1CN1CCCC1 (centres undefined)
i	CSCC(C)(O)CNC(=O)c1ccc(Oc2ccccc2)cc1 (centres undefined)
i	COc1ccc2c(c1)c(CC(=O)N[C@H](C)c1ccc(C)cc1)c(C)n2C(=O)c1ccc(Cl)cc1
i	O=C(c1cccs1)N1CCN(CC(O)c2cccs2)CC1 (centres undefined)
i	Cc1nc(-c2ccccc2Cl)sc1CNS(=O)(=O)c1c(C)noc1C
i	CC(C)(C)OC(=O)N1CCN(C(=O)c2sc3ncccc3c2-n2cccc2)CC1

Arranged by molar mass (ascending): some entries from above
GIRK2 activ	SMILES
i	O=C(NCc1cccnc1)c1ccc2nsnc2c1
i	CCCCNC(=O)C(=O)Nc1cccc(N2CCCC2=O)c1
i	CSCC(C)(O)CNC(=O)c1ccc(Oc2ccccc2)cc1 (centres undefined)
i	O=C(CSC1CCCC1)N1CCCSCC1CN1CCCC1 (centres undefined)
i	Cc1nc(-c2ccccc2Cl)sc1CNS(=O)(=O)c1c(C)noc1C
i	COc1ccc2c(c1)c(CC(=O)N[C@H](C)c1ccc(C)cc1)c(C)n2C(=O)c1ccc(Cl)cc1

New compounds follow
GIRK2 activ	SMILES
i	O=C(Nc1c2c(nn1-c1ccc(F)cc1)CSC2)C(=O)N1CCCC1
i	COC(=O)Cn1c(=O)c2c(nc3n(-c4ccc(C)cc4C)c(C)cn23)n(C)c1=O
i	CCCCCCCC/C=C\CCCCCCCCCCCC(=O)O
i	Cc1cc(C)n(-c2nc(CCNC(=O)/C=C/c3ccccc3Cl)cs2)n1
i	Cc1nn(C)cc1C(=O)N1CCc2ccccc2C1
i	Cc1cc(C(=O)Nc2nc3c(s2)CN(C(=O)c2ccc4ncsc4c2)CC3)no1
i	Cc1ccc(-c2nnc(NC(=O)c3cccc([N+](=O)[O-])c3)o2)cc1C
i	Cc1nc2cc(NC(=O)C3COCC(=O)N3Cc3ccccc3)ccc2s1 (centres undefined)
i	COc1ccc(C(=O)Nc2ccc3c(c2)CCC(=O)N3CCC(C)C)cc1
i	Cc1ccc(Cl)cc1NC(=O)Cn1nc2c(Oc3ccccc3C)nccn2c1=O

Next records
GIRK2 activ	SMILES
i	Cc1ccc(S(=O)(=O)Nc2ccncc2)c(C)c1N(C)S(=O)(=O)c1ccc(Cl)cc1
i	CCc1ccc(NC(=O)Cn2cc(S(=O)(=O)c3ccccc3)c(=O)c3cc4c(cc32)OCO4)cc1
i	COc1cc2[nH]c3c(=O)n(CC(=O)N4CCN(c5ccccc5)CC4)cnc3c2cc1OC
i	COC(=O)N1CCC(CNC(=O)C(=O)Nc2ccc(C)c(N3CCCC3=O)c2)CC1
i	Cc1noc(-c2cccnc2N2CCC(NC(=O)C3(c4ccccc4)CC3)CC2)n1
i	O=C(/C=C/c1ccc2c(c1)OCO2)NC1CCCC(OC(=O)Nc2ccc(F)cc2)C1 (centres undefined)
i	O=C(CCCCCn1c(=S)[nH]c2ccc(Br)cc2c1=O)NCc1ccccc1
i	Cc1cccc(NC(=O)CSc2nnc3ccccn23)c1
i	O=C(c1ccc[nH]c1=O)N1CCC(Oc2ccccn2)CC1
i	COc1ccc(-c2cnc(SCC(N)=O)n2-c2cccc(Cl)c2)cc1

The list continues.
GIRK2 activ	SMILES
i	COc1ccc(/C=N\n2c(N)c(C(=O)NCC(C)C)c3nc4ccccc4nc32)cc1OC
i	Cc1ccc(C)c(S(=O)(=O)NCCc2ccoc2)c1
i	CC1CCCCN1S(=O)(=O)c1ccc(C(=O)Nc2ccc(Cl)c3ncsc23)cc1 (centres undefined)
i	Cc1ccc2sc(NC(=O)c3cccc(S(=O)(=O)N4CCCC4)c3)nc2c1C
i	Cc1ccc2c(Nc3ccc(Cl)c(C(F)(F)F)c3)c(C(=O)N3CCOCC3)cnc2n1
i	COc1ccc(NC(=O)COc2cc(C)nc(N3CCCC3)n2)cc1
i	COc1ccc(S(=O)(=O)NCc2cccnc2)cc1N(C)S(C)(=O)=O
i	COc1cc(NC(=O)/C=C/c2cccs2)ccc1N1CCCC1=O
i	CCOC(=O)N1CCN(C(=O)Nc2nc(CC(=O)NC(C)c3ccccc3)cs2)CC1 (centres undefined)
i	Cc1nc(-c2noc(-c3cccnc3)n2)cn1CC(=O)N1CCc2ccccc21

Next section
GIRK2 activ	SMILES
i	Cc1ccc(-n2cc(C(=O)N3CCC(NC(=O)c4ccc(Cl)cc4)CC3)nn2)cc1C
i	O=C(Nc1cccs1)Nc1nc2c(s1)CCC2
i	O=C(Cn1nc(-c2ccccc2)c2sc(N3CCCC3)nc2c1=O)NCc1ccco1
i	CCCCc1ccc(NC(=O)c2cc(=O)c(OC)cn2C)cc1
i	CC1(C)Cc2cccc(OCC(=O)Nc3cc(C4CC4)nn3-c3nc(-c4ccccc4)cc(=O)[nH]3)c2O1
i	O=C1NC(=O)C(c2ccccc2Cl)=C1Nc1cccc(O)c1
i	CN1CCN(C(=O)c2cc(-c3cccs3)n(CC(=O)NCC3CCCO3)n2)CC1 (centres undefined)
i	COc1ccc2cc(-c3c(-c4ccncc4)nc(-c4ccc(S(C)=O)cc4)n3C)ccc2c1 (centres undefined)
i	Cc1cc(C)c(S(=O)(=O)N(C)c2ccccc2)cc1N(C)S(=O)(=O)c1ccccc1
i	COc1ccccc1CNC(=O)C(=O)NCCC1CCCCN1S(=O)(=O)c1ccccc1 (centres undefined)

Additional results follow:
GIRK2 activ	SMILES
i	Cc1cc(N2CCN(C(=O)C3CCCN(c4cc(-n5ccnc5)ncn4)C3)CC2)ncn1 (centres undefined)
i	COc1cccc(NC(=O)CCSc2ccc3ccccc3n2)c1
i	Cc1ccc(-n2nc3c(c2-n2cccc2)CN(C(=O)/C=C/c2cccs2)C3)cc1
i	COc1ccc(CC(=O)NCC2CCN(S(=O)(=O)c3cccnc3)CC2)cc1OC
i	CCCCn1c(=O)c2ccccc2n(Cc2nc(-c3cc(OC)c(OC)c(OC)c3)no2)c1=O
i	O=C(c1ccc(F)cc1)N1CCN(c2ncnc3c2nnn3-c2ccc(Cl)cc2)CC1
i	COC(=O)c1cccc(NC(=O)c2nnn(-c3ccccc3Cl)c2-c2ccccn2)c1
i	CC/C=C\C/C=C\C/C=C\CCCCCCCCCC(=O)O
i	CCN(CC)CCN(C(=O)c1ccnn1C)c1nc2c(OC)ccc(C)c2s1
i	COc1ccc(OC)c(S(=O)(=O)NCCNc2ccc(Nc3ccccn3)nn2)c1

More results follow:
GIRK2 activ	SMILES
i	O=S(=O)(C1CC1)N1CCOCC1
i	O=C(c1ccc(=O)[nH]c1)N1CCC(Oc2ccccn2)CC1
i	COCCNC(=O)N1CCCC(COC)C1 (centres undefined)
i	CCOc1ccccc1NC(=O)C(=O)NC1CCCCCC1
i	CCc1cccc(NC(=O)C2CCN(c3c(C#N)cnc4ccc(F)cc34)CC2)c1
i	COc1ccc(OC)c(-c2cc(C(=O)NCCN3CCN(c4ccccc4)CC3)n(C)n2)c1
i	COCCn1c(C(=O)Nc2ccc3c(c2)OCO3)cc2c(=O)n(C)c(=O)n(C)c21
i	CCN1CCc2nc(-c3ccc(F)cc3)n(CC(=O)Nc3cccc(C(C)=O)c3)c(=O)c2C1
i	O=C(Nc1ccccc1F)N1CCC2(CC1)OCCS2
i	Cc1cc(C(=O)Nc2cccc(N3CCCC3=O)c2)no1
i	O=C(Nc1nnc(-c2cccs2)o1)c1cccc(F)c1
i	COc1ccc(CNC(=O)NCCc2csc(-n3nc(C)cc3C)n2)cc1
i	O=C(/C=C/c1ccccc1)NCCCS(=O)(=O)N1CCN(c2ccc(F)cc2)CC1

Bioassay records as filed in PubChem BioAssay.
